From PubChem BioAssay
eIF4H inh: inhibitors of RNA binding by human eIF4H; eIF4H fluorescence polarization binding assay; 290,000 tested, 0.94% active; inhibition, % at 35 µM; Q15056;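 active = 50% or more with normal probe brightness, or confirmed in later tests; inconclusive = above 50% with abnormal brightness, or retests that disagree; inactive = below 50% or failed in later tests; about a fifth of its hits are not listed in these tables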;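 also: calls also rest on retests at 20 µM and on dose response follow-up; 0% = protein and probe with vehicle and 100% = probe without protein; strong numbers were not always called active; many hits fall short of the cut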
Rce1 inhib: yeast Ras-converting enzyme inhibition; AID 2563; yeast membranes, quenched prenylated peptide cleavage fluorescence; calls only; Q03530; 290,000 tested, 0.27% active;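 active = fall in fluorescence gain of 50% or more versus controls, with final raw signal at or below 3038400; inconclusive = same 50% fall but final raw signal above 3038400; inactive = fall in fluorescence gain under 50%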;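 also: plate controls were neutral control wells for no effect and wells lacking membranes for full effect; tested at 10 µM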
Target sequence (Q03530 whole entry, looked up): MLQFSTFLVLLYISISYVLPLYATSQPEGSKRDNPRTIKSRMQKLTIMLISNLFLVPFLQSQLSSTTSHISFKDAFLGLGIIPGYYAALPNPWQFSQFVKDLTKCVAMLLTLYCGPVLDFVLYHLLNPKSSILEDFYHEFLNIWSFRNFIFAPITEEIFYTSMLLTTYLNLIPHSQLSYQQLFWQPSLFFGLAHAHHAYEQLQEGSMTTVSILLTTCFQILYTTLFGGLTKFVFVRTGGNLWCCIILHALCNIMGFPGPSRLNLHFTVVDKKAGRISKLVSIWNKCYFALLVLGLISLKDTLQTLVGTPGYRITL
MT1-MMP act inh: inhibitors of human MT1-MMP activation; P50281; HT1080 RFP-PRO-GFP cells, GFP/RFP ratio fluorescence, overnight; percent of plate control window, DMSO zero; GFP/RFP ratio change, % at 20 µM; 360,000 tested, 0.061% active; AID 651647;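 active = GFP/RFP ratio change of at least 30% with cell ATP level not reduced by more than half and red fluorescence within 50% of control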; also: strong numbers were not always called active
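Test system: HT1080 RFP-PRO-GFP cells; Benchmarks: DMSO and RFP-L50D-GFP cell wells; Timing: cells overnight before dosing, compound overnight, 37 °C, 5% CO2; Compound: one 20 µM compound dose with 1% DMSO; Read-out: GFP/RFP fluorescence ratio.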
UUG fidelity: modulators of start codon recognition fidelity in yeast. S. cerevisiae UUG-firefly luciferase reporter, luminescence/redox ratio. 350,000 tested, 0.13% active. activity score, % at 18.7 µM;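 active = replicate mean at a twofold rise or more, about +100% in these data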;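 also: firefly luciferase made from a UUG start codon reports start codon fidelity; reporter light over untreated wells divided by growth signal over untreated wells; some hits fall short of that in this replicate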
CSC inhib: cancer stem cell inhibition; cancer stem cell-like cells viability, luminescence; inhibition, % at 7.5 µM; 300,000 tested, 1.1% active;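 active = mean at 75% or more and at least half the replicates too; inconclusive = mean and replicates disagree; tested in HMLE shEcad cells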;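 also: 0% = median of negative and 100% = median of positive control wells; the first replicate is given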
HIV Env fusion: HIV envelope-mediated fusion inhibition; AID 651610; HeLa-JRFL Env/CEM21 cell fusion, luciferase; inhibition, % at 12.3 µM; 360,000 tested, 1.1% active;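 active = mean replicate inhibition score of at least 50 and every replicate individually at or above 50; inconclusive = only one of the two criteria met; inactive = mean below 50 and not all replicates reaching 50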;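 also: 0% = plate neutral controls and 100% = maraviroc near 300 nM; one replicate is shown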
PABP FP inh: PABP-poly(A) binding inhibition. P11940. PABP-poly(A) RNA binding, fluorescence polarization. inhibition, % at 35 µM. 290,000 tested, 1% active;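 active = 50% or more with normal probe brightness, or confirmed in later tests; inconclusive = above 50% with abnormal brightness, or retests that disagree; inactive = below 50% or failed in later tests; about a fifth of its hits are not listed in these tables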;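 also: calls also rest on retests at 20 µM and on dose response follow-up; controls were probe without protein and protein plus probe with vehicle; some compounds called inactive have numbers as strong as hits; many hits fall short of the cut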
eIF4H inh retest: recorded beside eIF4H inh, whose call it bears; inhibition, %; compound at 20 µM; confirmation average;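 mean of two retest wells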
PABP FP inh retest: recorded beside PABP FP inh, whose call it bears; inhibition, %; compound at 20 µM; confirmation repeats;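 mean of two retest wells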
MT1-MMP act inh RFP: second read-out of MT1-MMP act inh, no call of its own (marks repeat the call); RFP signal change, %; measured here: RFP expression control read;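 0 = vehicle wells; hits needed this value within 50% of zero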
* marks the source's active call; other numbers are inactive results; i = inactive; ? = inconclusive; nt = not tested or not shown; & = joins results of further samples.

SMILES	eIF4H inh	Rce1 inhib	MT1-MMP act inh	MT1-MMP act inh RFP	UUG fidelity	CSC inhib	HIV Env fusion	PABP FP inh	others
COc1ccc(CCNC(=O)c2ccc(NC3=NC4CS(=O)(=O)CC4S3)cc2)cc1OC (configuration not stated)	-5	i	-4	2	-6	-14	-3	-2
CC(=O)CCc1c(C)c2cccc(C)c2[nH]c1=O	-13	i	1	-1	-24	nt	-9	0
CCC(=O)Nc1ccc(C(=O)CSc2nnc(-c3ccccc3F)n2C2CC2)cc1	73*	i	-9	5	nt	-21	-39	-4	eIF4H inh retest=82*;PABP FP inh retest=17
O=C(NCc1ccco1)c1ccc(Br)c(S(=O)(=O)N2CCCCC2)c1	4	i	2	-8	-8	-5	nt	2
NC(=O)C1(N2CCCCC2)CCN(C(=S)NCCc2ccccc2)CC1	4	i	0	-3	nt	-11	15	-8
COc1ccccc1/C=C/C(=O)/C=C/c1ccccc1O	-13	nt	-23	-22	-9	nt	-189	-9
O=C(CSc1ccc2ccccc2c1)NC1CCCc2ccccc21 (configuration not stated)	-14	i	3	4	nt	9	-13	-3
CCC(=O)c1ccc(OCC(=O)OCC(=O)NCC2CCCO2)cc1 (configuration not stated)	-10	i	0	3	-19	nt	4	2
Cn1c(=O)c2c(SCc3cccnc3)nc(CC(C)(C)C)nc2n(C)c1=O	-10	i	-8	-6	-3	11	-26	-2
CC(=O)Nc1ccc(S(=O)(=O)NC2C3(C)CCC(C3)C2(C)C)cc1 (configuration not stated)	1	i	-1	-1	-10	nt	6	6
CN(Cc1cnn(C)c1)C(=O)C1CCC(=O)N(Cc2cccc(F)c2)C1 (configuration not stated)	-9	i	-2	1	-5	18	-2	-4
CC(=O)Nc1ccc(S(=O)(=O)Nc2ccccc2C(=O)N2CCCC2)cc1	-16	i	-2	0	-15	11	-11	6
O=C(O)c1ccc(N(Cc2ccccc2)S(=O)(=O)c2ccccc2)cc1	-1&1	i	0	2	2	-11&-9	-12	-1&5
COc1ccc(NC(=O)[C@@H](NC(=O)c2ccccc2)C(C)C)cc1S(=O)(=O)N1CCCCC1	0	i	-2	-4	-2	nt	16	0
Cc1c(C(=O)NCCc2ccc(Cl)cc2)sc2nc3n(c(=O)c12)CCC3	nt	i	0	-3	-8	-5	0	nt
O=C(CN1C(=O)/C(=C\c2cccc(Cl)c2)Oc2ccccc21)N1CCN(c2ccccn2)CC1	-12	i	nt	nt	nt	20	nt	3
O=S(=O)(NCCOCCNS(=O)(=O)c1ccccc1)c1ccccc1	-4	i	-5	-2	-15	-6	-77	-2
C=C(C)c1cccc(C(C)(C)NC(=O)N2CCN(C)CC2)c1	3	i	7	1	-4	7	-12	4
CCOC(=O)N1CC(=O)Nc2ccc(Br)cc2C1c1ccccc1 (configuration not stated)	0	i	-2	3	3	2	29	4
O=[N+]([O-])c1ccccc1C=NNC(=S)NN=Cc1ccccc1[N+](=O)[O-]	nt	nt	3	-4	-35	nt	-72	nt
COCCN(C(=O)COC(=O)c1nc(Cl)ccc1Cl)c1c(N)n(Cc2ccccc2)c(=O)[nH]c1=O	nt	i	1	3	19	14	-1	nt
Cc1cc(C)cc(NC(=O)CN(C)S(=O)(=O)c2cnc[nH]2)c1	-3	i	6	6	-20	nt	nt	?
O=C1C2C3c4ccccc4C(c4ccccc43)C2C(=O)N1c1cccnc1 (configuration not stated)	-1	i	3	2	nt	12	-14	34
CC1CCN(C(=O)CCCC(=O)O)CC1	2	i	3	7	nt	-9	20	-2
COc1cc(CNC(=O)CCn2nc(C)c3c(C)n(-c4ccccc4)nc3c2=O)cc(OC)c1OC	-11	i	-2	1	-8	-32	-1	4
Cn1nc(-c2ccccc2)c(C#N)c1Sc1cccc(Cl)c1	3	i	-1	-1	-16	23	nt	2
O=[N+]([O-])c1ccc(-c2ccc(/C=N/Nc3nc(NCc4ccccc4)nc(N4CCOCC4)n3)o2)cc1	18	i	-49	2	nt	14	-22	-1
CS(=O)(=O)c1ccc(C(=O)OCC(=O)NCc2cccs2)cc1[N+](=O)[O-]	nt	nt	14	-4	5	nt	4	nt
Cc1ccc(C)c(S(=O)(=O)N2CCCC2CNC(=O)C(=O)NCc2ccco2)c1 (configuration not stated)	nt	i	-3	0	-9	-4	-25	nt
O=C(CNC(=O)c1cccc([N+](=O)[O-])c1)OCCCC(=O)c1ccc(F)cc1	nt	nt	-2	4	0	-4	0	nt
COc1cc(/C=C(\C(=O)O)c2ccc(S(=O)(=O)N3CCCC3)s2)cc(OC)c1	nt	nt	1	5	0	nt	-1	nt
O=C(COC(=O)/C=C/c1ccco1)Nc1ccc(F)cc1Cl	38	i	2	2	nt	16	-9	6
C=C(C)c1cccc(C(C)(C)NC(=O)N2CCN(c3ccc(OC)cc3)CC2)c1	0	i	1	1	nt	17	14	5
COc1ccc(C)cc1N(CC(=O)N/N=C/c1ccc2c(c1)OCO2)S(C)(=O)=O	-5	i	-3	-2	nt	-11	-3	9
COn1c(C)c(C(C)=O)c2c3nonc3ccc21	32	i	-13	-3	-13	1	nt	46
COc1cccc(CN2c3ccc(Br)cc3C(=O)CS2(=O)=O)c1	nt	nt	10	-3	2	16	0	nt
COCCCN1C(=O)CC(C(=O)OC)=C1C	-5	i	0	3	-11	-10	14	16
O=[N+]([O-])c1ccccc1CCc1cnc(Cl)s1	-8	i	3	6	-34	-14	-26	-4
COc1ccc2sc(N(CCCN(C)C)C(=O)c3ccc(S(=O)(=O)N4CCCc5ccccc54)cc3)nc2c1	nt	i	3	-3	3	3	-38	nt
O=c1[nH]c(=S)[nH]c2nc(-c3cccs3)cc(C(F)(F)F)c12	2	i	4	3	-15	0	0	20
Cc1cccc(OCCn2cnc(Cl)c2Cl)c1	2	i	3	-1	-5	5	-22	-3
CCc1cccc(NC(=O)CC2Oc3ccccc3NC2=O)c1 (configuration not stated)	-17	i	1	0	-8	-24	3	-2
O=C(COc1ccc(S(=O)(=O)N2CCCC2)cc1)N1CCCC1	-19	nt	0	2	-6	-2	-2	7
Cc1ccc(S(=O)(=O)Nc2ccc(Cl)cn2)cc1	-1	i	0	7	-15	-4	-5	6
Nc1cccc(/C=C/c2ccncc2)c1	-2	i	3	1	nt	-3	17	12
NC(=O)CSc1nnc(COc2ccccc2)n1N	-5	i	-2	2	1	-10	7	10
CCC1(C)OC(=O)NN(c2ccc(C)cc2)C1(C)O (configuration not stated)	-8	i	-1	1	nt	2	nt	13
CCCc1nnc(NC(=O)Cn2c(=O)oc3cc(Br)ccc32)s1	7	nt	2	6	-18	-2	-1	20
O=S(=O)(c1cccs1)N1CN(Cc2cccs2)c2nc3ccccc3nc21	0	i	-8	-4	nt	-12	nt	-5
CCOC(=O)C(NC(=O)Nc1ccc(Cl)cn1)(Oc1ccccc1)C(F)(F)F (configuration not stated)	6	i	-2	5	nt	-11	nt	13
CC(=O)NC1(C(Cl)(Cl)Cl)Oc2ccccc2O1	5	i	15	-7	-10	nt	8	6
CCN(CC)c1nc2nonc2nc1N(CC)CC	1	i	1	3	-22	-4	-82	-4
CCOC(=O)C1CCN(C(=O)C2CCN(S(=O)(=O)N3CCCC3)CC2)CC1	4	i	-1	0	-3	-7	-12	-9
CC(=O)CSc1ncnc2c1oc1ccccc12	-5	i	2	1	-10	-4	nt	8
O=C(CC[C@H]1O[C@@H](n2cnc3c(NC(=O)c4ccccc4)ncnc32)[C@H](O)[C@@H]1O)NCc1ccccn1	nt	nt	3	2	-9	nt	-2	nt
CCN(CC)C(=O)c1sc(NC(=S)N2CCN(C(=O)C3CCCO3)CC2)c(C(=O)OC)c1C (configuration not stated)	-18	i	-1	1	4	38	5	5
COc1ccc(N(CCC(=O)Nc2ccccc2F)S(=O)(=O)c2ccc(C)cc2C)cc1	nt	i	-5	0	-11	8	2	nt
CN(c1cccc(NC(=O)c2ccc(Cl)c(S(=O)(=O)N3CCOCC3)c2)c1)S(C)(=O)=O	-2	i	3	0	7	-5	5	0
CCN1C(=O)[C@@H]2[C@@H](c3ccc(-c4ccccc4)cc3)N3CCC[C@@]3(C(=O)OC)[C@@H]2C1=O	nt	nt	3	-1	-12	nt	6	nt
O=C(CN1CCN(c2ccc(F)cc2)CC1)c1cccs1	0	i	0	4	nt	-6	0	-2
(more compounds)
SMILES	eIF4H inh	Rce1 inhib	MT1-MMP act inh	MT1-MMP act inh RFP	UUG fidelity	CSC inhib	HIV Env fusion	PABP FP inh	others
COc1ccc(OC)c(NC(=O)c2cc3n(n2)C(C(F)(F)F)CC(c2ccc4c(c2)OCO4)N3)c1 (configuration not stated)	8	i	-5	0	-2	nt	35	-11
O=C(O)c1ccc(NC(=S)NC(=O)C(c2ccccc2)c2ccccc2)cc1	-9	i	4	0	-22	-9	14	-6
O=C(Cc1ccc(Cl)cc1)N/N=C/c1cccc(O)c1	12	i	3	-3	-10	1	-39	-3
Nc1[nH]c(=O)[nH]c(=O)c1N=Nc1cccc(Cl)c1	6	i	1	2	nt	1	-44	1
Cc1c(O[C@@H]2O[C@H](CO)[C@@H](O)[C@H](O)[C@H]2O)ccc2c1oc(=O)c1ccccc12	-7	i	-5	-2	-3	-6	0	-2
CN(Cc1ccccc1)Cc1nc2c(c(=O)n(C)c(=O)n2C)n1Cc1ccc(Cl)cc1	0	i	-9	-12	-8	-1	-68	-4
O=C(O)c1ccc(CS(=O)(=O)Cc2ccccc2F)o1	-3	i	1	2	nt	-14	nt	14
CCOC(=O)c1c(C)nc2sc3c(=O)n(-c4ccc(C(C)=O)cc4)nnc3c2c1-c1ccc(OC)cc1	2	i	1	7	-16	0	nt	3
CN(C)S(=O)(=O)c1cccc(NC(=O)CO/N=C(\N)c2ccccc2)c1	nt	i	2	0	-5	2	3	nt
CCN(CC)S(=O)(=O)c1ccc2oc(SCC(=O)Nc3cc(C)on3)nc2c1	nt	i	9	4	-14	41	6	nt
Cc1c(C(=O)N(C)C)sc(NC(=O)c2cccc([N+](=O)[O-])c2)c1C#N	6	i	11	-4	-15	-16	-166	18
CCOc1ccc(NC2OC(CO)C(O)C(O)C2O)c([N+](=O)[O-])c1 (configuration not stated)	-15	i	15	2	nt	1	-5	-9
CN(C)CCCNC(=O)CC1C[C@H](C(=O)N2CCOCC2)[C@@]2(CCC3CCCC3)c3[nH]c4ccccc4c3CCN2C1=O (some centres not stated)	nt	nt	3	1	-20	nt	-13	nt
COc1ccc(-n2ccnc2SCC(=O)Nc2cc(C)on2)cc1	-6	i	1	2	-19	nt	12	4
CSCCC(NC(=O)c1cc(C(C)(C)C)oc1C)C(=O)O (configuration not stated)	1	i	3	3	-4	-7	nt	-5
CC(OC(=O)c1ccco1)C(=O)NC1CCCCC1 (configuration not stated)	-5	nt	-1	1	-6	-4	-18	0
O=C(NC1CCCCCC1)C1CCN(S(=O)(=O)c2cnc[nH]2)CC1	3	i	-1	-2	nt	7	25	-6
COc1nc(N=C(N)N)nc2c(C)cccc12	-10	i	-11	-2	-18	-4	0	-6
COc1ccc(C(=O)N2CCOC2CNC(=O)C(=O)NCc2ccc(F)cc2)cc1 (configuration not stated)	-9	i	-3	2	-2	0	-3	-7
Cc1nonc1NC(=O)CSc1ccccn1	3	i	0	2	-15	nt	11	-1

A portion of the library; the hit share may differ from the screen's.
